Screens as filed in PubChem.
Vaccinia inh: Vaccinia orthopox stage-specific inhibition | Vaccinia-infected cells, mCherry/Venus stage reporter fluorescence; hits give low values; some inactives read as strong as hits | activity change (mCherry), % (concentration not given with the values) | 89,000 compounds, 0.01% hits | AID 1053133;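 active = mCherry past -33% and 40 or more points under the early reporter, replicates agreeing; inconclusive = past -33% without that gap or agreement; tested in A549 cells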;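 note: scaled between vehicle wells and reference inhibitor wells; 23 nL library stock went into each well; one replicate is shown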
Vaccinia inh Venus: second read-out of Vaccinia inh, no call of its own (marks repeat the call); activity change (Venus), %; measured here: Venus reporter, other viral stage;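 negative = less Venus signal; first of two replicates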
Numbers without * were called inactive; ? = inconclusive; / = no result given.

cpd	Molecule	Vaccinia inh	Vaccinia inh Venus
1	C[C@@H]1CN([C@@H](C)CO)S(=O)(=O)c2ccc(C#CC3CC3)cc2O[C@@H]1CN(C)C	10.3	-7.4
2	CC(=O)N(C)C[C@H]1Oc2ncc(-c3ccc(C)cc3)cc2C(=O)N([C@H](C)CO)C[C@H]1C	5.4	-0.4
3	O=C(C1CCCCC1)N1[C@@H]2CN(S(=O)(=O)c3ccccc3)c3ccccc3[C@@H]2[C@@H]1CO	5.2	-0.7
4	CN1C(=O)c2cc(NC(=O)Cc3cccs3)ccc2OC[C@H]2O[C@H](CC(=O)N[C@H]3CCN(Cc4ccccc4)C3)CC[C@@H]21	-7.9	-0.9
5	COc1ccc(-c2ccc3n(c2=O)C[C@H]2N[C@@H]3[C@@H](C(=O)N3CCCCC3)[C@@H]2CO)cc1	10.1	15.3
6	O=C(C1CCCC1)N1CCCCN2[C@H](CO)[C@@H](c3ccc(-c4cccc(F)c4)cc3)[C@@H]2C1	?	/
7	C[C@H](O)C#Cc1ccc([C@@H]2[C@H]3CN(C(=O)c4ccc5c(c4)OCO5)CCCCN3[C@H]2CO)cc1	2.6	-0.5
8	C[C@@H]1CN([C@H](C)CO)C(=O)c2cc(NC(=O)Cc3cn(C)c4ccccc34)ccc2O[C@H]1CN(C)C	15.4	13.5
9	CC(C)NC(=O)Nc1ccc2c(c1)C(=O)N([C@H](C)CO)C[C@H](C)[C@H](CN(C)C(=O)Nc1ccc(C(F)(F)F)cc1)OCCCC[C@@H](C)O2	11.2	3.6
10	C[C@H](CO)N1C[C@H](C)[C@@H](CN(C)S(=O)(=O)c2cccc(F)c2)OCc2cnnn2CCCC1=O	7.3	14.4
11	O=C(C[C@H]1CC[C@@H]2[C@H](COC[C@H](O)CN2S(=O)(=O)c2cccc(F)c2)O1)NCCCN1CCOCC1	3.0	-4.4
12	C[C@@H]1CN([C@@H](C)CO)C(=O)c2cc(N(C)C)ccc2O[C@@H](C)CCCCO[C@@H]1CN(C)Cc1ccncc1	18.4	13.4
13	CC(C)NC(=O)N(C)C[C@H]1Oc2ccc(NC(=O)Cc3ccccc3)cc2CC(=O)N([C@H](C)CO)C[C@@H]1C	-7.3	-6.5
14	C[C@@H]1CCCCO[C@H](CN(C)CC2CC2)[C@H](C)CN([C@H](C)CO)C(=O)c2cc(N(C)C)ccc2O1	-7.0	-5.4
15	COC(=O)C[C@@H]1CC[C@H]2[C@@H](COc3ccc(NC(=O)Nc4c(C)noc4C)cc3C(=O)N2C)O1	21.3	12.5
16	COc1cccc(S(=O)(=O)N2C[C@@H]3N[C@H](C2)C3c2ccc(-c3ccccc3OC)cc2)c1 (stereo not given in full)	?	11.3
17	C[C@H]1CN([C@@H](C)CO)C(=O)c2ccccc2-c2ccccc2CO[C@@H]1CN(C)C(=O)Oc1ccccc1	8.0	-1.6
18	O=C(C[C@@H]1C[C@@H]2c3cc(NC(=O)Nc4ccccc4)ccc3O[C@@H]2[C@@H](CO)O1)NCc1cccc(F)c1	12.3	8.6
19	COc1ccc(S(=O)(=O)N(C)C[C@@H]2OCCCC[C@H](C)Oc3ccc(NS(=O)(=O)c4c(C)noc4C)cc3C(=O)N([C@@H](C)CO)C[C@H]2C)cc1	-29.1	-25.8
20	CN(C)c1ccc2c(c1)[C@@H]1C[C@H](CC(=O)N3CCCCC3)O[C@H](CO)[C@@H]1O2	-0.3	5.4
21	COc1ccc(S(=O)(=O)N(C)C[C@@H]2Oc3ccc(NC(=O)Cn4cnnn4)cc3C(=O)N([C@H](C)CO)C[C@H]2C)cc1	2.2	4.2
22	CCCNC(=O)N[C@H]1CC[C@H](CCn2cc(C3CCCC3)nn2)O[C@H]1CO	3.6	10.4
23	Cc1ccc(S(=O)(=O)N(C)C[C@@H]2OCCCC[C@@H](C)Oc3ccc(NS(C)(=O)=O)cc3C(=O)N([C@@H](C)CO)C[C@@H]2C)cc1	20.2	10.2
24	COc1ccc(NC(=O)N(C)C[C@@H]2OCCCC[C@@H](C)Oc3ccc(NS(=O)(=O)c4cn(C)cn4)cc3C(=O)N([C@H](C)CO)C[C@@H]2C)cc1	11.1	6.5
25	CCCNC(=O)N1[C@@H]2c3ccc(-c4ccccc4OC)c(=O)n3C[C@H]1[C@H](CO)[C@H]2C(=O)NCC	18.6	9.8
26	O=C(Cc1ccccn1)N[C@H]1CC[C@@H](CCn2cc(-c3cccnc3)nn2)O[C@H]1CO	11.2	1.7
27	C[C@H](CO)N1C[C@H](C)[C@H](CN(C)C(=O)c2ccncc2)OCCCC[C@H](C)Oc2ccc(NS(=O)(=O)c3ccc(Cl)cc3)cc2C1=O	15.7	2.2
28	O=C(C[C@@H]1C[C@@H]2c3cc(NC(=O)C4CCOCC4)ccc3O[C@@H]2[C@@H](CO)O1)NCCc1ccccc1	14.4	4.4
29	CCCNC(=O)C[C@H]1CC[C@H]2[C@H](COc3ccc(NC(=O)NC(C)C)cc3C(=O)N2C)O1	8.6	-2.4
30	CC(C)C#Cc1cnc2c(c1)C(=O)N([C@@H](C)CO)C[C@@H](C)[C@H](CN(C)C(=O)c1cnccn1)O2	33.1	6.4
31	O=C(C[C@H]1CC[C@H]2[C@@H](COC[C@H](O)CN2CCC(F)(F)F)O1)NCC1CC1	-0.2	1.9
32	C[C@@H]1CN([C@H](C)CO)C(=O)c2cc(NS(=O)(=O)c3ccc(Cl)cc3)ccc2O[C@H]1CN(C)C(=O)Nc1ccc2c(c1)OCO2	5.7	6.3
33	CC(C)CC#Cc1ccc([C@H]2[C@@H](CO)N3C(=O)CN(C(=O)NC4CCCC4)C[C@H]23)cc1	-15.2	-4.7
34	O=C(C[C@H]1C=C[C@H](NC(=O)C2CCOCC2)[C@@H](CO)O1)Nc1ccc(-c2ccccc2)cc1	-16.4	-9.8
35	Cc1noc(C)c1S(=O)(=O)Nc1ccc2c(c1)C(=O)N([C@@H](C)CO)C[C@@H](C)[C@H](CN(C)S(=O)(=O)c1ccccc1)OCCCC[C@@H](C)O2	?	/
36	CCS(=O)(=O)Nc1ccc2c(c1)C(=O)N(C)C[C@@H](OC)[C@@H](C)CN(C(=O)C1CCC1)[C@H](C)CO2	19.7	17.9
37	COc1ccc(S(=O)(=O)Nc2cccc3c2O[C@H](CN(C)C(=O)NC2CCCCC2)[C@@H](C)CN([C@@H](C)CO)C3=O)cc1	7.1	-0.3
38	COc1ccc(CN(C)C[C@@H]2OCCCC[C@@H](C)Oc3ccc(NC(=O)CCC(F)(F)F)cc3C(=O)N([C@H](C)CO)C[C@@H]2C)cc1	3.9	1.7
39	CC(C)NC(=O)N(C)C[C@H]1Oc2ccc(NC(=O)c3ccncc3)cc2CC(=O)N([C@H](C)CO)C[C@H]1C	25.2	11.1
40	COCC(=O)N(C)C[C@H]1Oc2ncc(/C=C/c3ccccc3)cc2C(=O)N([C@@H](C)CO)C[C@H]1C	5.2	0.9
41	N#C[C@@H]1[C@@H](c2ccccc2)[C@@H](CO)N1C(=O)c1ccccc1F	12.3	0.0
42	CN(C)CC(=O)N[C@H]1CC[C@@H](CC(=O)NCCN2CCCCC2)O[C@H]1CO	24.7	15.2
43	C[C@H]1CN([C@@H](C)CO)C(=O)c2cccc(NC(=O)NC3CCCCC3)c2O[C@@H]1CN(C)S(C)(=O)=O	-0.7	8.3
44	CO[C@H]1CC[C@H]2CCN(C)C(=O)[C@H](C)[C@H](OC)CN(C)C(=O)c3cccc(C#N)c3OC[C@@H]1O2	18.7	10.6
45	COCC(=O)N1[C@H](C#N)[C@H](c2ccccc2)[C@H]1CO	30.5	13.9
46	CCC(=O)N1C[C@H](C)[C@H](OC)CN(C)C(=O)c2cc(NC(=O)Nc3ccc(Cl)cc3)ccc2OC[C@@H]1C	-18.7	-16.2
47	C[C@H]1CN([C@@H](C)CO)C(=O)Cc2cc(NS(=O)(=O)c3ccc(Cl)cc3)ccc2O[C@H]1CN(C)C(=O)Nc1ccccc1	7.4	11.1
48	COc1ccccc1-c1ccc2n(c1=O)C[C@H]1[C@H](CO)[C@@H](C(=O)N3CCCCC3)[C@@H]2N1CC1CC1	11.9	9.2
49	O=C(C[C@H]1CC[C@@H]2[C@H](COC[C@H](O)CN2S(=O)(=O)c2cccc(Cl)c2)O1)NCCCN1CCOCC1	13.5	5.0
50	COc1ccc2c3c([nH]c2c1)[C@@H](CO)N(Cc1ccncc1)CC31CN(CC2CCOCC2)C1	18.9	24.4
51	COc1ccccc1NC(=O)N[C@H]1CC[C@H](CCNS(=O)(=O)c2ccc(C)cc2)O[C@@H]1CO	-13.7	-28.6
52	O=C(c1cccc(F)c1)N1C[C@H]2[C@@H](c3ccccc31)[C@@H](CO)N2C(=O)C1CCOCC1	6.0	2.9
53	Cc1cc(C(=O)Nc2cccc3c2O[C@H](CN(C)Cc2ccc(C(F)(F)F)cc2)[C@@H](C)CN([C@@H](C)CO)C3=O)n(C)n1	-20.1	-10.3
54	C[C@H](CO)N1C[C@H](C)[C@H](CN(C)S(=O)(=O)c2ccccc2)Oc2ccc(NC(=O)Nc3ccc(C(F)(F)F)cc3)cc2C1=O	-14.0	-13.8
55	CN1CCN(C(=O)C[C@H]2CC[C@@H]3[C@H](COC[C@H](O)CN3S(=O)(=O)c3cccc(F)c3)O2)CC1	6.9	1.7
56	COc1ccc(S(=O)(=O)N(C)C[C@H]2Oc3ccc(NC(=O)CCCCCC(=O)Nc4ccccc4N)cc3CC(=O)N([C@H](C)CO)C[C@H]2C)cc1	31.3	23.5
57	CCC(=O)N1C[C@H](C)[C@H](OC)CN(C)C(=O)c2cc(NC(=O)c3ccc(F)cc3)ccc2OC[C@H]1C	2.3	-0.4
58	CN(C[C@H]1N[C@H](CO)[C@@H]1c1ccc(-c2cccnc2)cc1)C(=O)NC1CCCC1	5.1	8.1
59	C[C@H]1CN([C@@H](C)CO)C(=O)Cc2cc(NS(=O)(=O)c3cccs3)ccc2O[C@H]1CN(C)C(=O)Nc1ccc(C(F)(F)F)cc1	11.8	3.4
60	CCCN1[C@@H]2Cn3c(cccc3=O)[C@H]1[C@@H](C(=O)N(C)C)[C@@H]2CO	-1.9	4.4

Carrying on.
cpd	Molecule	Vaccinia inh	Vaccinia inh Venus
61	COc1ccc(S(=O)(=O)N(C)C[C@@H]2OCCCC[C@H](C)Oc3ccc(NC(=O)CCC(F)(F)F)cc3C(=O)N([C@H](C)CO)C[C@H]2C)cc1	-10.9	-21.3
62	O=C(Nc1cc(F)ccc1F)N1CC(=O)N2[C@H](C1)[C@H](c1ccc(-c3ccc(F)cc3)cc1)[C@@H]2CO	-20.8	-18.2
63	COc1ccc(NC(=O)Nc2ccc3c(c2)CC(=O)N([C@H](C)CO)C[C@@H](C)[C@@H](CN(C)C(=O)NC(C)C)O3)cc1	14.2	4.6
64	COc1ccc(NC(=O)Nc2ccc3c(c2)C(=O)N([C@H](C)CO)C[C@@H](C)[C@@H](CN(C)C(=O)Cc2ccccc2)OCCCC[C@H](C)O3)cc1	-3.8	-5.6
65	C[C@H]1CN([C@@H](C)CO)C(=O)c2c(c3ccccc3n2C)-c2ccccc2CO[C@@H]1CN(C)C(=O)C1CC1	1.4	-11.7
66	COc1ccc2c3c([nH]c2c1)[C@@H](CO)N(C(=O)C1CCCCC1)CC31CCN(S(C)(=O)=O)CC1	8.3	7.0
67	C[C@H]1CN([C@@H](C)CO)S(=O)(=O)c2ccc(C#CCN(C)C)cc2O[C@@H]1CN(C)C(=O)CN(C)C	3.1	-4.3
68	C[C@@H]1CCCCO[C@@H](CN(C)C(=O)CCC(F)(F)F)[C@@H](C)CN([C@H](C)CO)C(=O)c2cc(NS(=O)(=O)c3cn(C)cn3)ccc2O1	7.2	7.0
69	COC(=O)[C@H]1[C@H](CO)[C@H]2Cn3c(ccc(-c4ccc(F)cc4)c3=O)[C@H]2N1C	3.8	7.1
70	C[C@H]1CN([C@@H](C)CO)C(=O)c2c(c3ccccc3n2C)-c2ccccc2CO[C@@H]1CN(C)C(=O)c1ccncc1	18.3	1.1
71	O=C(C1CCC1)N1CCCCN2[C@H](C1)[C@@H](c1ccc(C#CC3(O)CCCC3)cc1)[C@@H]2CO	-4.0	-22.3
72	COc1ccc(NC(=O)Nc2ccc3c(c2)C(=O)N([C@@H](C)CO)C[C@H](C)[C@H](CN(C)S(=O)(=O)c2cccs2)OCCCC[C@@H](C)O3)cc1	1.2	7.3
73	C[C@@H]1CN([C@@H](C)CO)C(=O)Cc2cc(NC(=O)Nc3cccc4ccccc34)ccc2O[C@H]1CN(C)CC1CC1	-4.9	2.9
74	CNC[C@H]1Oc2c(NC(=O)c3ccncc3)cccc2C(=O)N([C@H](C)CO)C[C@H]1C	9.3	-0.3
75	C[C@@H]1CCCCO[C@H](CN(C)C(=O)Nc2cccc3ccccc23)[C@H](C)CN([C@H](C)CO)C(=O)c2cc(N(C)C)ccc2O1	-32.3	-10.1
76	COc1ccc(C#Cc2ccc([C@@H]3[C@@H](CO)N4CCCCN(C(=O)Nc5ccccc5F)C[C@@H]34)cc2)cc1	-14.1	-11.4
77	N#C[C@@H]1[C@H](c2ccccc2-c2cccc(F)c2)[C@@H](CO)N1C(=O)C1CC1	3.7	-5.3
78	C[C@@H]1CN([C@@H](C)CO)C(=O)c2cc(C#Cc3ccccc3)cnc2O[C@@H]1CN(C)CC1CCOCC1	?	/

Taken from above.
Result for CNC[C@H]1Oc2c(NC(=O)c3ccncc3)cccc2C(=O)N([C@H](C)CO)C[C@H]1C under Vaccinia inh: 9.3
Result for C[C@@H]1CN([C@@H](C)CO)C(=O)Cc2cc(NC(=O)Nc3cccc4ccccc34)ccc2O[C@H]1CN(C)CC1CC1 under Vaccinia inh: -4.9
Result for N#C[C@@H]1[C@H](c2ccccc2-c2cccc(F)c2)[C@@H](CO)N1C(=O)C1CC1 under Vaccinia inh: 3.7
Result for COc1ccc(C#Cc2ccc([C@@H]3[C@@H](CO)N4CCCCN(C(=O)Nc5ccccc5F)C[C@@H]34)cc2)cc1 under Vaccinia inh Venus: -11.4

Profiles as entered above. Screens in order: Vaccinia inh, Vaccinia inh Venus
Record of `O=C(c1cccc(F)c1)N1C[C@H]2[C@@H](c3ccccc31)[C@@H](CO)N2C(=O)C1CCOCC1` = 6.0, 2.9
Record of `C[C@@H]1CN([C@H](C)CO)C(=O)c2cc(NS(=O)(=O)c3ccc(Cl)cc3)ccc2O[C@H]1CN(C)C(=O)Nc1ccc2c(c1)OCO2` = 5.7, 6.3

Some of the compounds tested; the hit share may differ from the screen's.
